Bioassay records from PubChem.
HCMV NEC inh = inhibitors of HCMV UL50-UL53 interaction, biochemical, HTRF; HCMV UL50-UL53 nuclear egress complex (human cytomegalovirus); normalized percent inhibition; inhibition, % (no concentration beside the values); 190,000 tested, 0.15% active;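 active = both replicates at 50% or more, plus weaker picks with an unusually low signal ratio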;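 note: stock transfer was 100 nL into about 20 µL; 0% = negative control wells and 100% = wells with untagged competitor protein; inactives centre near -12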
Sa growth inh = S. aureus growth inhibition at 42 and 30 °C, primary screen, LtaS inhibitor project, RN4220, two temperatures | OD600, 20 h, 42 °C; hits give low values | relative growth, % (no concentration beside the values) | 170,000 tested, 0.53% active | AID 720641, 2013;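 active = growth at 42 °C up to 50% and 20 or more points under that at 30 °C, or under 10% at both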;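 note: 300 nL library stock went into each well; scaled to the means of positive and negative controls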
GIV Gai3 FP = inhibitors of GIV peptide binding to Galpha-i3, primary screen, biochemical, fluorescence polarization, FITC-GIV GBA peptide, rat Galphai3; Guanine nucleotide-binding protein G(i) subunit alpha-3 (Rattus norvegicus), P08753; 90 min; hits give low values; scaled: aluminum fluoride 0%, vehicle 100%; percent of control (FP), % (test concentration not listed); 210,000 tested, 0.42% active;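 active = replicate mean at 85% of control or lower, very high polarization wells dropped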;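 note: wells of about 15 µL received 100 nL stock; the first replicate is given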
Target sequence (P08753 whole entry, looked up): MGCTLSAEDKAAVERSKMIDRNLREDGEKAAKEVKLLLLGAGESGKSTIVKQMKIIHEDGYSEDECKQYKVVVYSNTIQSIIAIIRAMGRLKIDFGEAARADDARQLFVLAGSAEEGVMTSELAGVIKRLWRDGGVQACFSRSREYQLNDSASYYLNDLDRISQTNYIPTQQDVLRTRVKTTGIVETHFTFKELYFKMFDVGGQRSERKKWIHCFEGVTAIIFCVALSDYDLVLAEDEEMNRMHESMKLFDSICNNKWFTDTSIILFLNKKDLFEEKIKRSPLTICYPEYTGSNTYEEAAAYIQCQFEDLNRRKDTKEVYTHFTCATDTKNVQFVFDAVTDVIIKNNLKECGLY
Sa growth inh second temp = further read-out of Sa growth inh, marked with its call; relative growth, %; measured here: growth at 30 °C;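 optical density after 20 h as mean of two plates; 100% = untreated growth and lower means inhibition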
Starred values were filed as active, the others as inactive; · = not tested or not shown; & = joins results of further samples.

SMILES	HCMV NEC inh	Sa growth inh	Sa growth inh second temp	GIV Gai3 FP
CCSc1nc2c(c(=O)[nH]c(=O)n2C)n1CC(O)COc1ccc(Cl)cc1 (configuration not stated)	27.0	97.1	103.2	105.0
NS(=O)(=O)c1ccc(NC(=O)OCC(F)(F)F)cc1	-15.0	71.0	93.2	·
Cc1c(C(=O)N2CCC3(CC2)OCCO3)sc2nc3n(c(=O)c12)CCCC3	·	96.6	91.1	102.0
Cc1cc(C)c(OCCOCCn2c(-c3ccc(Cl)cc3)nc3ccccc3c2=O)c(C)c1	-38.1	101.3	87.7	102.4
COc1ccc(OC)c(C2CC(=O)N(c3ccccc3)C3=C2C(=O)OC3)c1 (configuration not stated)	-16.6	103.2	75.5	103.0
COc1cc(C=C2C(=O)NC(=O)NC2=O)cc(Br)c1OCCOc1ccccc1	82.2*	·	·	105.0
COc1ccc(S(=O)(=O)Nc2cc3oc4ccccc4c3cc2OC)cc1	·	119.4	80.2	100.0
CC1CCN(C(=O)c2cc3c(s2)-c2ccc(Cl)cc2SC3)CC1	-39.1	97.8	92.1	105.0&110.4
COC(=O)NCN1C(=O)C2C3C=CC(C3)C2C1=O (configuration not stated)	·	85.4	98.0	104.8
N#Cc1c(Nc2ccccc2)sc2c(O)cc(=O)[nH]c12	·	132.3	59.4	120.0
CCN(Cc1nc2ccccc2c(=O)[nH]1)Cc1nc2ccc(Cl)cc2n1CCO	-0.2	121.6	91.5	·
CN1CCN(CC2CC=CCC2)CC1 (configuration not stated)	4.7	118.0	89.8	·
COc1cc(NS(=O)(=O)c2ccc(NC(=O)COc3ccc(Cl)cc3Cl)cc2)nc(OC)n1	-1.1	94.7	93.4	102.2
CCCOc1ccc(NC(=O)CCCN2C(=O)c3ccccc3C2=O)cc1	-7.3	116.2	83.8	102.0
Cc1ccc(C2=C/C(=C3\OC(=O)c4ccccc43)C(=O)O2)cc1	8.2	106.4	82.6	·
O=C(NCCc1csc2nc(-c3cccc(F)c3)nn12)c1ccc(F)cc1	8.8	·	·	104.1
COc1cccc(CNC(=O)c2cccc(NC(=O)c3nsc4ccccc34)c2)c1	·	134.9	88.9	104.0
Cc1nc(SCCOc2ccc(Cl)cc2)[nH]c(=O)c1Cc1ccccc1	-8.5	101.6	83.5	102.7
COc1ccc(NC(=O)CN2C(=O)COc3ccc(S(=O)(=O)N4CCCCC4)cc32)cc1Cl	·	117.8	89.6	105.8
COc1ccc2[nH]cc(CCNC(=O)NC34CC5CC(CC(C5)C3)C4)c2c1	·	101.6	91.7	99.1
Cc1cc(Br)cc(C)c1NC(=O)c1sc2ncn(Cc3cccc(F)c3)c(=O)c2c1C	·	141.3	95.6	102.1
CCOC(=O)c1ccc(NC(=S)NN2CCN(C)CC2)cc1	·	123.9	90.7	98.9
CCOC(=O)c1ccc(NC(=O)CCc2c(C)nc3nc[nH]n3c2=O)cc1	-25.7	91.0	88.9	102.3
Cc1ccc(NC(=O)C2CC=CCC2C(=O)N2CCCCC2)cc1 (configuration not stated)	-4.7	89.1	85.7	103.3
CCc1ccc(-c2nnn(CC#N)n2)cc1	14.0	99.4	93.0	110.9

The last 2 compounds of the part above come first, to join the parts:
SMILES	HCMV NEC inh	Sa growth inh	Sa growth inh second temp	GIV Gai3 FP
Cc1ccc(NC(=O)C2CC=CCC2C(=O)N2CCCCC2)cc1 (configuration not stated)	-4.7	89.1	85.7	103.3
CCc1ccc(-c2nnn(CC#N)n2)cc1	14.0	99.4	93.0	110.9
O=C1Nc2ccccc2C1c1c(-c2ccc(Br)cc2)[nH]c2[nH]c(=O)[nH]c(=O)c12 (configuration not stated)	-12.1	·	·	105.0
COc1ccc(-c2nc3ccccc3s2)cc1NC(=O)c1ccccc1OC	-19.5	93.4	95.1	110.9
O=C(CSc1cccc[n+]1[O-])N(CCc1ccccc1)Cc1ccccc1	3.0	110.1	88.5	·
Cc1ccc(-c2cc(C(=O)N(C)C3CCCCC3)no2)cc1	4.3	87.5	88.4	·
CN(C)C1(CNC(=O)COc2ccc(Br)cc2)CCCCC1	20.0	·	·	110.1
Cc1cc(SCC(=O)NCc2ccccc2Cl)nc(=O)[nH]1	·	133.1	84.6	100.9
CCn1c(=O)c2cc(C(=O)NCCCN(C)Cc3ccccc3)sc2c2ccccc21	-50.4	110.2	84.5	104.9
CCc1cccc(C)c1NC(=O)C1CCN(S(=O)(=O)Cc2ccccc2)CC1	-26.4	99.2	87.1	101.6
COc1ccc2c(c1)-c1nc(NC(=O)c3ccc(OC)c(Br)c3)sc1CC2	6.2	104.6	81.5	102.3
CCS(=O)(=O)c1nc2ccccc2n1CCOc1ccc(Cl)cc1	-4.4	86.1	71.3	101.1
CC1=NN(C(=O)c2ccc(Br)cc2)C(O)(c2ccccc2)C1 (configuration not stated)	-23.8	·	·	108.3
COc1cccc(C(Nc2cccc(C)n2)c2cc(C)sc2NC(=O)c2ccccc2)c1 (configuration not stated)	-1.8	·	·	106.4
CCOC(=O)c1cc(-c2ccnn2C(=O)c2ccc(C)cc2)on1	-21.4	89.6	81.0	107.5
Cc1noc(C)c1COc1ccc(C(=O)OCC(=O)Nc2sc3c(c2C(N)=O)CCC3)cc1	13.2	98.1	92.1	·
c1ccc(-c2csc(-c3ccc(-c4ccccn4)s3)n2)cc1	-9.8	93.8	76.0	105.5
Cc1ccc(CNC(=O)C2C3C=CC4(CN(Cc5cccnc5)C(=O)C24)O3)cc1 (configuration not stated)	-15.6	102.9	94.8	103.7
Cc1ccc(NC(=O)COC(=O)C2CCC(=O)N2)c(S(=O)(=O)N2CCOCC2)c1 (configuration not stated)	-12.3	98.0	95.1	·
CC1CCCCC1NC(=O)CN1N=C(c2ccccc2)CCC1=O (configuration not stated)	·	112.3	91.5	104.5
O=C(NC1CCCCC1)c1ccc2c(c1)NC(=O)C(CS(=O)(=O)Cc1ccc(F)cc1)N2 (configuration not stated)	-25.8	109.4	90.8	111.6
CC(=O)N1CCC2(CC1)OC(=O)C(C)=C2C(=O)NC1CCCC1	-3.4	·	·	108.1
CCc1ccc(Oc2coc3cc(OC(C)C(=O)OCC(C)C)ccc3c2=O)cc1 (configuration not stated)	·	130.2	90.8	100.2
CCCc1c(C#N)c(N)[nH]c(=S)c1C#N	2.7	58.8	52.5	·
Cc1ccc2c(C)c(C(=O)N(Cc3ccccc3F)C3CCS(=O)(=O)C3)oc2c1 (configuration not stated)	-10.6	84.5	76.9	103.7
CCN1C(=O)OC(C)(CCc2ccccc2)C1(C)O (configuration not stated)	-3.0	98.9	97.8	·
CCc1c(C)sc2c1CCN(C(=O)Nc1cc(C)cc(C)c1)C2c1ccccc1 (configuration not stated)	·	89.3	78.7	100.2
SMILES	HCMV NEC inh	Sa growth inh	Sa growth inh second temp	GIV Gai3 FP
CN(Cc1ccccc1)C(=O)COC(=O)Cc1ccc(Cl)cc1	-19.5	115.0	91.9	·
O=c1[nH]c(SCc2nc(-c3cccc(Br)c3)no2)nc2c(-c3ccccc3)c[nH]c12	-25.9	·	·	101.6
CCCC(NC(=O)c1ccccc1)c1nc2ccccc2[nH]1 (configuration not stated)	-22.1	126.1	79.4	·
O=C(CN1CCN(c2ccccn2)CC1)NC(=O)NC1CCCCC1	6.2	102.2	94.1	·
Cc1ccc(-c2cc(NC(=O)c3cccc(C)c3)on2)cc1	-1.3	99.3	78.5	102.7
Cc1onc(-c2ccccc2)c1C(=O)OCc1cc(=O)n2cc(Br)ccc2n1	-39.5	69.4	95.0	·
S=c1[nH]nc(Nc2ccc(Br)cc2Cl)s1	-8.3	100.6	12.4	105.6
O=C(O)CCc1nc(-c2cccs2)no1	-11.7	108.7	83.2	99.4
COc1ccc(Nc2nc(C)c(NC(=O)C(C)C)c(Nc3ccc(OC)cc3)n2)cc1	2.0	·	·	101.4
CN(C(=O)CCn1c(=O)oc2ccccc21)c1ccccc1	·	93.6	86.5	103.3
COc1ccc(N=C2SC(C(=O)NCCc3ccccc3)CC(=O)N2Cc2ccc3c(c2)OCO3)cc1 (configuration not stated)	-19.9	·	·	103.0
CCOc1ccc(Sc2cc(C(=O)NCc3ccc(F)cc3)c3ccccc3n2)cc1	·	118.2	100.9	103.1
Cc1sc(-c2ccno2)cc1S(=O)(=O)N(C)C1CCCCC1	-23.4	·	·	108.0
CCCc1c(C(=O)Nc2cc(C)on2)cnn1-c1ccccc1	-12.5	99.8	88.2	102.6
CNC(=O)C1CCN(S(=O)(=O)Cc2ccccc2)CC1	-3.0	·	·	112.7
O=C(Oc1ccc2ccc(=O)oc2c1)c1cccs1	-29.1	97.4	94.0	96.9
Cc1nc2c(c(C)c1CCC(=O)N1CCCC1)c(=O)n(C)c(=O)n2C	-9.7	102.0	86.2	100.0
O=C(Nc1ccc(N2CCCC2)cc1C(=O)O)c1ccc(Br)cc1	-69.0	·	·	103.4
CCN(C(=O)c1noc2c1CCCC2)c1ccccc1	-16.3	89.0	89.6	101.5
CC1(C)CC(=O)C=C(NCC(c2cccs2)N2CCOCC2)C1 (configuration not stated)	-4.7	96.7	92.0	·
Cc1ccc2c(c1)cc1c(=O)n(CC(=O)N(C)c3ccccc3)nc(C)n12	-13.9	79.1	91.5	109.6
CCCNC(=O)c1c(C)cc(=O)oc1C	·	107.1	89.3	101.7
CCOc1ccc2c(c1)nc1n2C(=O)C(c2ccccc2)CS1 (configuration not stated)	1.6	101.0	69.8	98.2
Cc1ccc(-c2nc3ccccc3s2)cc1NC(=O)c1ccc2c(c1)OCCO2	-2.2	99.2	92.5	96.3
CCOc1ccc(C(=O)N2CC(=O)Nc3ccc(C)cc3C2c2ccc(F)cc2)cc1OCC (configuration not stated)	-5.7	108.9	92.4	103.1

An excerpt of these results, as a markdown table:
| SMILES | HCMV NEC inh | Sa growth inh | Sa growth inh second temp | GIV Gai3 FP |
| --- | --- | --- | --- | --- |
| CCCc1c(C(=O)Nc2cc(C)on2)cnn1-c1ccccc1 | -12.5 | 99.8 | 88.2 | 102.6 |
| CNC(=O)C1CCN(S(=O)(=O)Cc2ccccc2)CC1 | -3.0 | · | · | 112.7 |
| O=C(Oc1ccc2ccc(=O)oc2c1)c1cccs1 | -29.1 | 97.4 | 94.0 | 96.9 |
| Cc1nc2c(c(C)c1CCC(=O)N1CCCC1)c(=O)n(C)c(=O)n2C | -9.7 | 102.0 | 86.2 | 100.0 |
| O=C(Nc1ccc(N2CCCC2)cc1C(=O)O)c1ccc(Br)cc1 | -69.0 | · | · | 103.4 |
| CCN(C(=O)c1noc2c1CCCC2)c1ccccc1 | -16.3 | 89.0 | 89.6 | 101.5 |

Other compounds follow:
SMILES	HCMV NEC inh	Sa growth inh	Sa growth inh second temp	GIV Gai3 FP
O=C(CCS(=O)(=O)c1cc(Br)cc2c1N(C(=O)C1CC1)CC2)NC1CCCCCC1	·	105.7	94.8	99.0
CCC(=O)n1nc(C)c(S(=O)(=O)N2CCCCC2)c1C	-26.8	·	·	101.3
Cc1ccc(-c2cc(C(=O)N3CC(C)OC(C)C3)c3ccccc3n2)cc1 (configuration not stated)	-34.6	102.7	86.8	·
COc1ccc(C2c3ccsc3CCN2S(=O)(=O)c2ccc(Cl)cc2)cc1 (configuration not stated)	-43.4	84.8	85.0	104.0
C=C(C)c1cccc(C(C)(C)NC(=O)N(C)C2CCN(C)CC2)c1	-21.6	94.9	74.7	98.9
O=c1c(-c2ccccc2)c(O)nc2ccccn12	·	106.9	89.3	100.1
O=C1CC(c2cccs2)CC(O)=C1C=NCCN1CCNCC1 (configuration not stated)	·	107.8	91.3	110.6
CNCC(O)CN1CCN(c2ccccc2OC)CC1 (configuration not stated)	-10.6	84.5	89.3	·
CCOC(=O)Cn1c(=O)n(CC2CCCO2)c2nc(-c3ccccc3)nc(C(N)=O)c21 (configuration not stated)	3.1	101.6	93.5	102.2&103.0
O=C(Nc1ccc(NC(=O)c2ccccc2O)cc1)c1ccc(Cl)cc1	-25.7	107.2	84.5	103.4
O=C(Nc1ccc(OC(F)(F)F)cc1)C1=NCCN1	-3.3	103.6	88.0	·
CCOc1ccccc1NC(=O)Cn1ccn(-c2ccccc2)c(=O)c1=O	-17.6	116.7	94.0	98.5
CCCn1c(SCc2ccc(Br)cc2)n[nH]c1=O	-12.7	102.1	95.2	·
O=C(COc1ccc(F)cc1)OCc1cc(=O)n2c3c(sc2n1)CCCC3	3.5	97.3	79.1	106.8
COC(=O)C1=CN(C2CCCCC2)C=C(C(=O)OC)C1c1cccc(C)c1	-41.3	88.3	92.7	99.7
O=c1[nH]c2cc(-c3nc(-c4ccc5c(c4)OCO5)no3)ccc2c(=O)n1Cc1ccc2c(c1)OCO2	-18.2	·	·	103.2
O=c1[nH]nc(-c2ccc(F)cc2)cc1Cc1ccco1	-32.3	103.7	99.8	104.0
COc1ccc(-c2ccc3c(N)c(C(=O)NCc4ccc(Cl)cc4)sc3n2)cc1	0.5	114.0	101.5	106.1
